# NPYLR7 agonist – agonists of mosquito NPYLR7 receptor, primary screen, cell-based, Aedes aegypti, calcium fluorescence, mosquito biting behavior; HEK293T NPYLR7/Galpha15, GCaMP6s calcium fluorescence; activation, % at 10 µM; 270,000 tested, 0.15% active; AID 1259423, 2018; in the data active means activation above about 40%;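 further: 0% = vehicle and 100% = reference agonist at the receptor; some compounds past the cut are filed as inactive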
# NPYLR7 agonist max-min – second read-out of NPYLR7 agonist, no call of its own (marks repeat the call); activation, %; measured here: Max-Min RFU normalised activation; some inactives read as strong as hits;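 span of the calcium signal over five minutes; 0% = vehicle and 100% = native peptide agonist; compound fluorescence can raise it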
# Numbers without * were called inactive. The list is partial; count on the stated rates, not on these rows.
# Results follow in this order: NPYLR7 agonist | NPYLR7 agonist max-min
- CCn1c(=O)c2ccc(Cl)cc2n(C(C)C(=O)NCc2ccccn2)c1=O (stereo not drawn)
 : 29 | 21
- CCNc1cc(NCCNC(=O)Nc2ccc(OC)cc2OC)nc(C)n1
 : 1 | -1
- CCOC(=O)COc1cc(Br)c(C=O)cc1OCC
 : -17 | -21
- CN(C)CCNC(=O)c1ccc(CSc2nc(N3CCCC3)cc(C(F)(F)F)n2)cc1
 : 16 | 9
- N[C@@H]1CC[C@@H](NC(=O)c2cc(=O)n(-c3ccccc3)[nH]2)C1
 : -1 | -1
- CC(Oc1cccc(F)c1)C(=O)NCCn1nc(-c2cccs2)ccc1=O (stereo not drawn)
 : 0 | 0
- Clc1ccccc1-c1nc2c(OCc3ccccc3)cccn2c1NC1CCCCC1
 : 26 | 30
- COc1ccccc1CCC(=O)N1CCCC(CCC(=O)Nc2ccc(F)cc2C)C1 (stereo not drawn)
 : 12 | 8
- CCN(c1ccc(NC(=O)CCl)cc1)C(C)C
 : -1 | -8
- Cc1cc(C(=O)N2CCC(n3c(=O)oc4cccc(C)c43)CC2)n(C(C)(C)C)n1
 : -11 | -10
- Fc1cccc(F)c1CN1CCCn2cccc2C1c1cccc(C(F)(F)F)c1 (stereo not drawn)
 : 20 | 26
- Cc1nc(SCc2nnc(-c3cccs3)o2)c2c3c(sc2n1)CCCC3
 : -17 | -20
- Cc1nc(CN2CCN(C(=O)Cn3nnnc3CN3CCC(C)CC3)CC2)cs1
 : 13 | 8
- COc1ccc(CCN(Cc2ccc(C)s2)C(=O)CN(C(=O)c2ccccc2OC)C(C)C)cc1OC
 : -13 | -8
- CSc1ccc(C2(O)Cc3cccc[n+]3C2c2ccccc2)cc1 (stereo not drawn)
 : -4 | -5
- COc1ccccc1CCN1CCC(CN(C)C(=O)CCSC)CC1
 : 14 | 2
- CC(C)Cn1nccc1NC(=O)Cc1c(Cl)cccc1Cl
 : -1 | -2
- COCCNC(=O)Cn1c(-c2nnc(C(C)C)o2)cc2ccccc21
 : -1 | -2
- Cc1oc(-c2ccc(Cl)cc2[N+](=O)[O-])cc1C(=O)Nc1nccs1
 : 3 | 8
- CC1(O)C2C3CC4C5C3C1C(O)(C5Br)C42 (stereo not drawn)
 : -6 | -6
- Cc1ccc(CCS(=O)(=O)CCO)cc1
 : 12 | 10
- O=C(OCc1ccc(C(=O)N2CCCC2)cc1)c1cc(Cl)c[nH]1
 : -6 | -8
- CC(C)Nc1nc(-c2ccccc2)nc2ccccc12
 : 4 | 11
- Nc1ccc(-c2cnc[nH]2)cc1
 : 6 | 9
- CCCNC(=O)CSc1c(CCC)cnc2c1c(=O)n(C)c(=O)n2C
 : 13 | 12
- Cc1cc(C(=O)Nc2ccc(C(=O)N(C)C)c(Cl)c2)c(C)n1-c1cccnc1
 : 0 | -1
- COc1ccc(NC(=O)CSc2nc3c(cc2C#N)CCC3)cc1
 : -7 | -16
- Cc1cc(C(=O)N2CCN(c3nccc(-c4ccc(Oc5ccccc5)cc4)n3)CC2)c(C)o1
 : 7 | 3
- Cc1ccc(-c2nnn3c2nc(Cl)c2ccccc23)cc1
 : -6 | -10
- Cc1cc(C)cc(NC(=O)CSc2nc(=O)n3ccc(C)cc3n2)c1
 : 0 | -1

# 3 structures already listed, arranged by SMILES length, ascending:
# Results follow in this order: NPYLR7 agonist | NPYLR7 agonist max-min
- O=C(OCc1ccc(C(=O)N2CCCC2)cc1)c1cc(Cl)c[nH]1
 : -6 | -8
- Clc1ccccc1-c1nc2c(OCc3ccccc3)cccn2c1NC1CCCCC1
 : 26 | 30
- N[C@@H]1CC[C@@H](NC(=O)c2cc(=O)n(-c3ccccc3)[nH]2)C1
 : -1 | -1

# Back to the main list; the 3 compounds before the break are reprinted first.
# Results follow in this order: NPYLR7 agonist | NPYLR7 agonist max-min
- Cc1cc(C(=O)N2CCN(c3nccc(-c4ccc(Oc5ccccc5)cc4)n3)CC2)c(C)o1
 : 7 | 3
- Cc1ccc(-c2nnn3c2nc(Cl)c2ccccc23)cc1
 : -6 | -10
- Cc1cc(C)cc(NC(=O)CSc2nc(=O)n3ccc(C)cc3n2)c1
 : 0 | -1
- Cc1ccc(C(=O)N(C)CCCN2c3ccccc3CCc3ccccc32)cc1[N+](=O)[O-]
 : -10 | -16
- Cc1ccc(NC(=O)C2(C)CCN2C(=O)c2sccc2C)cc1 (stereo not drawn)
 : 0 | 0
- Cc1noc(C)c1CN(C)c1ccccc1S(=O)(=O)C(F)(F)F
 : 4 | 38
- CC(C)=CC(=O)N1CCN(c2ncccn2)CC1C(=O)O (stereo not drawn)
 : 3 | 1
- CS(=O)(=O)NC1CCN(CC(O)CO)CC1 (stereo not drawn)
 : 1 | 3
- CSc1ccc(NC(=O)N(CC(=O)N2c3ccccc3-n3cccc3C2c2ccc(Cl)cc2)C2CC2)cc1 (stereo not drawn)
 : 13 | 18
- CCOC(=O)C1CCN(Cc2nc3scc(-c4ccccc4OC)c3c(=O)[nH]2)CC1
 : -7 | -10
- CCCCCN(CC(=O)N(CCCC)Cc1cccn1Cc1ccc(Br)cc1)C(=O)c1ccc2c(c1)OCO2
 : -6 | -6
- COc1cc(OC)cc(C(=O)NCC2CCCN(C(=O)c3csnn3)C2)c1 (stereo not drawn)
 : 5 | 3
- Clc1cc(Cl)cc(Nc2nc3ccccc3n3cnnc23)c1
 : 7 | 6
- Cc1cnc(SCCN2CCOCC2)nc1C1CCCN(C(=O)c2ccoc2)C1 (stereo not drawn)
 : 6 | 2
- O[C@H]1C[C@@H]2C[C@H](c3ccccn3)OC[C@]2(O)[C@@H]1N1CCC(c2ccccc2)CC1
 : 5 | 3
- COc1ccc(OC)c(C2c3[nH]c4ccccc4c3CCN2C/C=C/c2ccccc2)c1 (stereo not drawn)
 : -4 | -13
- COCCCN(Cc1c(C)nn(-c2ccccc2)c1N1CCN(C)CC1)S(=O)(=O)c1c(C)cc(C)cc1C
 : 15 | 15
- CCOC(=O)C1=C(C)OC(=N)C(C#N)C1c1cccs1 (stereo not drawn)
 : 2 | -3
- O=C(c1cc(Cl)cc(Cl)c1)N1CCCN(c2nc(Cc3ccccc3)nc3onc(-c4ccccc4)c23)CC1
 : 19 | 8
- CC(C)c1ccc(C(N)c2cccs2)cc1 (stereo not drawn)
 : -5 | -7
- COc1cc(CN2CCCC(CCC(=O)Nc3cc(Cl)ccc3OC)C2)ccc1F (stereo not drawn)
 : 12 | 1
- CCOC(=O)CCCC(=O)N1CCc2ccccc2C1c1ccc(F)cc1 (stereo not drawn)
 : 10 | 4
- CCCc1cc(=O)[nH]c(-n2nc(C)cc2NC(=O)CC(c2ccccc2)c2ccccc2)n1
 : 3 | 2
- Cc1cc(C)cc(N(Cc2cc(C)no2)Cc2cc(C)no2)c1
 : 6 | 5
- CC(=O)Nc1ccccc1C(=O)c1n[nH]nc1-c1ccc(Cl)cc1
 : 3 | -1
- COc1ccc(C(=O)N2CCCC(CCC(=O)Nc3ccc(F)cc3C)C2)o1 (stereo not drawn)
 : 3 | -5
- CC1(C(=O)NS(=O)(=O)c2cccc(OC(F)F)c2)CCN1C(=O)CCc1cccs1 (stereo not drawn)
 : 2 | 0
- COc1cccc(NC(=O)CCC2CCN(Cc3nccs3)CC2)c1
 : 11 | 2
- COCCNC(=O)c1ccc(CSc2nnc(C)n2-c2ccccc2C)cc1
 : 21 | 20
- COc1ccc(-c2noc(-c3c(SC)nn(CC(=O)Nc4ccc(C)c(F)c4)c3N)n2)cc1
 : 2 | -2
- COC(=O)C1=C(O)/C(=C\c2ccc(N(C)C)cc2)SC1=Nc1ccccc1F
 : 30 | 34
- CNC(=O)Cn1ccc2ccc(NC(=O)N3CCCC3(C)C)cc21
 : -4 | -7
- CC(C)=CC(=O)NC(C)CN(C)C(=O)C=C(C)C (stereo not drawn)
 : -1 | -6
- COc1ccc(Nc2nc(Cl)nc(N3CCOCC3)n2)cc1
 : 3 | 7
- CCOC(=O)C1=C(C)N(C)C(=O)NC1c1cc2c(cc1[N+](=O)[O-])OCO2 (stereo not drawn)
 : -2 | -8
- CCCCCCCC(=O)Nc1c(-c2cc(C)cc(C)c2)nc2ccccn12
 : -1 | 3
- CC1CCN(S(=O)(=O)NCC(C)N2CCOCC2)CC1 (stereo not drawn)
 : 14 | 7
- O=C(c1ccc2c(c1)OCO2)C1CCCN(Cc2ccc3c(c2)OCCO3)C1 (stereo not drawn)
 : 3 | 1
- CC(NC(=O)c1cnc(Cc2ccc(F)cc2)s1)c1cccnc1 (stereo not drawn)
 : -5 | -6
- CC(C)c1cc(NCc2cccnc2Oc2ccc(F)cc2F)ncn1
 : -2 | -5
- Cc1ccc(Cl)c(Oc2cc(N3CCN(C(=O)c4ccco4)CC3)ncn2)c1
 : 15 | 16
- COCCN(Cc1ccc(OC)c(OS(=O)(=O)c2ccc(F)cc2)c1)C(=O)c1ccccc1Cl
 : 4 | 11
- O=C1NCC(=O)N2CCN(C(=O)c3cnn(Cc4ccccc4)c3)CC12 (stereo not drawn)
 : 4 | 1
- CC(C)=CC1C(C(=O)Nc2cccc(S(=O)(=O)N(C)C)c2)C1(C)C (stereo not drawn)
 : 3 | 3
- COc1ccc(CN(C)C(=O)c2cc(Cl)c[nH]2)cc1
 : 4 | 4
- Cn1c(SCC(=O)Nc2ccnn2C2CCCC2)nnc1-c1ccco1
 : 1 | 7
- CC(Sc1n[nH]c(=O)n1C1CC1)c1ccccc1 (stereo not drawn)
 : -2 | -1
- CC(C)c1ccc(S(=O)(=O)Nc2ccc(SC(F)F)cc2)cc1
 : 9 | 4
- O=C(NCCCN1CCCC1=O)c1cc2c(s1)CSC2
 : 14 | 14
- O=C(CCC1CCN(Cc2cccn2-c2cccnc2)CC1)Nc1ccccc1
 : 3 | -1
- C=CCc1cccc2cc(C(=O)Nc3ccc(Br)cc3)c(=O)oc12
 : 1 | -1
- Cc1ccc(CN(CCN(C)C)C(=O)c2ccc[nH]c2=O)s1
 : 1 | -10
- Cc1ccc(NC(=O)C(C)(C)CCl)cc1N1CCCCC1=O
 : -1 | -5
- O=C(/C=C/c1cc(F)cc2c1OCOC2)N1CCOCC1
 : 2 | -1
- O=C1CC(c2cc3c(cc2Br)OCO3)c2cc3c(cc2N1)OCO3 (stereo not drawn)
 : 1 | -3
- COc1ccc(N2CCN(C(=O)c3ccc(Cl)c(Cl)c3)C(C)C2=O)c(OC)c1 (stereo not drawn)
 : -9 | 3
- COc1cccc(COCC(=O)Nc2ccc(OC)nc2)c1
 : 14 | 7
- Cc1ccc(N2CCn3c2nc2c3c(=O)n(C)c(=O)n2C)cc1C
 : 3 | 3
- Cc1sc2nc(CN3CCN(C(c4ccccc4)c4ccccc4)CC3)nc(N)c2c1C
 : 0 | 4
- COCc1ccc(C(=O)NCc2c(C)ncc3c2CCN(C(=O)/C=C/c2ccc(Cl)cc2)C3)o1
 : 0 | -2
- O=C(c1ccc(-n2cnnc2)cc1Cl)N1CCCC(O)(CO)CC1 (stereo not drawn)
 : 11 | 6
- CCn1ccc(C(=O)N2CCN(c3nc4c(Cl)cccc4s3)CC2)n1
 : -2 | -4
- CCc1ccc(-c2nc(C(N)=O)c3[nH]c(=O)n(-c4ccc(OC)cc4OC)c3n2)cc1
 : 20 | 6

# Carrying on.
# Results follow in this order: NPYLR7 agonist | NPYLR7 agonist max-min
- CCOC(=O)C(C)Sc1nnc(NC(=O)CSc2ccccc2)s1 (stereo not drawn)
 : 13 | 14
- Cc1cc(C)n(C(=O)c2cc(-c3ccc(Cl)s3)nc3ccccc23)n1
 : -14 | -20
- Cc1nc(SCC(=O)N2CCCC2=O)c(C#N)c(C)c1C
 : 1 | 30
- CCOc1cc(C(=O)NNC(=O)C2CCCCC2)ccc1OC(F)F
 : 15 | 7
- CC(Cn1cncn1)NCc1cc(-c2ccco2)on1 (stereo not drawn)
 : 14 | 10
- O=c1n(CCn2cncn2)nc(C2CCCNC2)n1-c1ccccc1 (stereo not drawn)
 : 1 | 0
- COc1cccc(NC(=O)C2(C)CCN2C(=O)Cc2ccc(C(C)C)cc2)c1 (stereo not drawn)
 : -3 | -3
- COc1ccc(C(=O)OCCn2ccccc2=O)c(C)c1
 : -1 | -2
- COc1ccccc1-n1c(CNC(=O)c2cccs2)nnc1SCC(=O)Nc1ccccc1F
 : -7 | -7
- CCN1CCN(C(=O)c2cc(-c3ccc(OC)cc3)n(-c3ccccc3F)c2C)CC1
 : 1 | 10
- O=C(COC(=O)c1ncc(Cl)c(Cl)c1Cl)NCCN1C(=O)CSC1=O
 : 0 | 30
- Cc1nc(C)c(CC(=O)N2CCC3(CC2)CNC(=O)C3)s1
 : 6 | 2
- COC(=O)CN1C(=O)NC2(CCN(C(=O)CCc3ccccc3O)CC2)C1=O
 : 9 | 12
- COc1ccc(CN(CCN2CCOCC2)CC(O)C(C)C)cc1OC (stereo not drawn)
 : 22 | 23
- Cc1cccc(C(=O)Nc2ncc(CN3CCC(c4ccccc4)CC3)s2)c1
 : 7 | 10
- Cc1ccc(-c2nn(CN(C)C3CCS(=O)(=O)C3)c(=S)n2-c2ccc(C)cc2)cc1 (stereo not drawn)
 : -3 | -3
- O=C(CN(Cc1ccccc1)C(=O)COc1ccc(Cl)cc1)Nc1cc(-c2ccccc2)nn1-c1ccc(F)cc1
 : 2 | 10
- Cc1ccccc1Cn1c(CN2CC(C)OC(C)C2)nc2c1c(=O)n(C)c(=O)n2C (stereo not drawn)
 : 2 | 10
- Cc1cc(Cl)ccc1S(=O)(=O)NC1CCS(=O)(=O)c2ccc(Cl)cc21 (stereo not drawn)
 : -9 | -13
- Cc1cc(C)c2nc(N(Cc3cccnc3)C(=O)c3ccc(C#N)cc3)sc2c1
 : -9 | -6
- Cc1csc(NC(=O)CSc2nnc(C)n2-c2ccccc2)n1
 : 1 | 2
- O=C(c1cccc(Br)c1)N1CCCC(Nc2ccc(F)cc2)C1 (stereo not drawn)
 : 22 | 25
- O=C(N[C@@]1(c2ccccc2)CCCC[C@H]1O)C1CCCN1Cc1ccc(Cl)nc1 (stereo partly drawn)
 : 7 | 10
- O=C(NCCc1ccc(F)cc1)C1CCCN(C2CCN(C(=O)C3CC3)CC2)C1 (stereo not drawn)
 : -12 | -11
- CCCCN(CC(=O)N1c2ccccc2-n2cccc2C1c1ccc(Cl)cc1)C(=O)c1ccc(Br)cc1 (stereo not drawn)
 : 10 | 8
